MT1-MMP promoter = MT1-MMP gene expression reporter suppression – cell-based, luciferase reporter, luminescence (AID 618); calls from a first round at 10 µM; hits with a dose series show EC50 in µM; 87,000 tested, 0.62% active; MT1-MMP promoter luciferase reporter cells, luminescence;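 active = over half of the reporter light lost at 10 µM or EC50 under 50 µM; inactive = the rest and hits that failed the dose series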;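 also: actives suppress MT1-MMP promoter-driven transcription so potencies describe inhibitors; HT1080 fibrosarcoma cells; overnight exposure; toxic or luciferase-blocking compounds were not removed from the actives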
Hsc70 ATP site = small molecules displacing fluorescent ligand from Hsc70 – biochemical, fluorescence polarization, primary screen (AID 568) | 83,000 tested, under 10 active | displacement, % at 20 µM; hits with a dose series show IC50 in µM | Hsc70 fluorescence polarization, probe displacement; higher % means a stronger effect; strong numbers were not always called active;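 active = displacement above 50% without optical interference and an IC50 on retest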;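 also: ATPase domain with a fluorescein-tagged ATP probe; 0% = vehicle and 100% = excess ADP; read after one hour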
WNV protease inh = inhibitors of West Nile virus NS2B-NS3 protease | P06935 | WNV NS2B-NS3 protease, fluorogenic substrate Ex360/Em465; hits give low values | z-score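 (tested at a level between 10 and 100 µM)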 | 65,000 tested, 0.18% active | AID 577;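 active = z-score at -3 or under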;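 also: score is relative to mean and spread of the compound wells of a plate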
Target sequence (P06935 1371-1501 limits assumed): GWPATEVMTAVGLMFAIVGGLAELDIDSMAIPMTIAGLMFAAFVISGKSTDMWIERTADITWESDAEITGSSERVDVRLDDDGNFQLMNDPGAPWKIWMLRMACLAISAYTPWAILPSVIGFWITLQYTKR
Target sequence (P06935 1502-1679 limits assumed): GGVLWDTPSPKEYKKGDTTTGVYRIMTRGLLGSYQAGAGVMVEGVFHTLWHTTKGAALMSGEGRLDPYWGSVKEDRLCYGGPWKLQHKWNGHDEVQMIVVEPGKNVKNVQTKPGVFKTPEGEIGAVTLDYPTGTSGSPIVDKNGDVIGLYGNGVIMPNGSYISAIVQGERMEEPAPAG
* hit, by the source's call; i = inactive; nt = no result given.

Second line of a record – MT1-MMP promoter | Hsc70 ATP site | WNV protease inh
COc1ccc(C2(C(=O)Nc3ccc(C(=O)O)cc3)CCOCC2)cc1
 : i | -1.3% | -0.32
CCC(=O)Nc1cccc(NC(=O)CSc2nnnn2C2CCCC2)c1
 : i | 0.2% | -0.82
CCSc1nnc(N2C(=O)CC(c3ccsc3)C3=C2CC(C)(C)CC3=O)s1 (centres undefined)
 : i | 0.3% | -0.46
CCOc1ccc(C(=O)c2ccncc2)cc1
 : i | 0.8% | 0.28
COc1ccc(C2C(C#N)=C(N)Oc3n[nH]c(-c4ccccn4)c32)c(OC)c1OC (centres undefined)
 : i | 2.4% | 0.6
CCCc1cc(=O)oc2cc(C)cc(OCC(=O)O)c12
 : i | 3.2% | -0.19
O=C(N/N=C/C=C\c1ccco1)c1cccnc1
 : i | 0.1% | nt
CCN(CC)CCCN(Cc1cc2ccc(C)c(C)c2[nH]c1=O)C(=O)NC1CCCCC1
 : i | 4.1% | nt
Cc1csc(/C(C#N)=N/O)n1
 : i | -3.3% | -0.27
CC1CCCCC1NC(=S)Nc1ccc(SC(F)F)cc1 (centres undefined)
 : i | -0.2% | nt
CCc1nn(C(C)C(=O)Nc2cccc(C)c2C)c(=O)c2cc3occc3n12 (centres undefined)
 : i | -21% | 1.8
COc1ccc(CCNS(=O)(=O)c2ccc(Cl)s2)cc1OC
 : i | -4.0% | nt
O=C1c2ccccc2S(=O)(=O)N1CC(O)COc1ccc(Cl)cc1 (centres undefined)
 : i | 6.9% | -0.25
COc1cccc(N(CC(=O)Nc2cccc(N(C)S(C)(=O)=O)c2)S(C)(=O)=O)c1
 : i | 4.4% | -1.9
CC(Sc1ccc2c(c1)OCCO2)C(=O)Nc1ncc(Cl)cc1Cl (centres undefined)
 : i | 0.7% | nt
c1ccc(C2CC3CC(c4ccccc4)N2O3)cc1 (centres undefined)
 : i | 4.1% | nt
COc1ccc(OC)c(NC(=O)CCN2CCCCC2)c1
 : i | 5.1% | 0.41
Cc1ccc(S(=O)(=O)Cn2nnnc2C(C(C)C)N2CCN(Cc3ccco3)CC2)cc1 (centres undefined)
 : i | -2.3% | -0.89
CC(C)Cc1nnc(NC(=O)CCC(=O)N2CCN(c3ccccn3)CC2)s1
 : i | 2.5% | nt
COc1ccccc1N1CCN(C(=O)c2ccc(S(=O)(=O)N3CCCCCC3)cc2)CC1
 : i | -7.2% | -1.1
Cc1csc(NC(=O)CSc2nnc(-c3ccncc3)n2C)n1
 : i | -2.6% | 0.99
O=C(c1cc(-c2ccncc2)nc2ccc(Br)cc12)N1CCN(c2ccccn2)CC1
 : i | -6.8% | -0.33
COC(=O)COc1ccc(S(=O)(=O)Nc2ccc(C(N)=O)cc2)cc1
 : i | -0.4% | -0.37
O=C(CSc1nnc(-c2ccccc2)n1Cc1ccccc1)N1CCCC1
 : i | -3.2% | 1.4
CCOc1ccccc1C1C(C#N)=C(N)Nc2onc(-c3ccccc3)c21 (centres undefined)
 : i | 0.1% | 0.59
CC1=C(Sc2ccccn2)C(=O)NC(C)(C)C1
 : i | 4.4% | 1.5
O=CNCC(=O)NC1CCCCCC1
 : i | -5.0% | -2.1
CC12C=CC3(O1)C(C(=O)N(c1ccccc1)C3C(=O)NC1CCCC1)C2C(N)=O (centres undefined)
 : i | -2.2% | nt
COC(=O)c1ccc(N(C(=O)c2ccco2)C(C(=O)NC2CCCC2)c2ccco2)cc1 (centres undefined)
 : i | 5.3% | nt
COc1ccccc1NC(=O)Cn1cnc2c(cnn2-c2ccc(C)c(C)c2)c1=O
 : i | -8.9% | 0.06

Limited to Hsc70 ATP site, for some of the entries so far:
compound	Hsc70 ATP site
c1ccc(C2CC3CC(c4ccccc4)N2O3)cc1 (centres undefined)	4.1%
COc1ccc(OC)c(NC(=O)CCN2CCCCC2)c1	5.1%
Cc1ccc(S(=O)(=O)Cn2nnnc2C(C(C)C)N2CCN(Cc3ccco3)CC2)cc1 (centres undefined)	-2.3%

Continuation:
Second line of a record – MT1-MMP promoter | Hsc70 ATP site | WNV protease inh
CCN(CC)S(=O)(=O)c1ccc(Cl)c(C(=O)NC2CCCC2)c1
 : i | -2.1% | -0.47
O=C(C1CCN(Cc2ccc(OCc3ccccc3)cc2)CC1)N1CCCC1
 : i | -2.1% | -0.84
CCSc1nc2ccccc2n1CC(=O)N1CCCCC1
 : i | -1.7% | 0.91
CCc1ccc(C2CC(c3ccccc3C)n3nc(N)nc3N2)cc1 (centres undefined)
 : i | 4.9% | -1.8
N#CC[n+]1cc(-c2ccc(Cl)cc2)n2c1CCC2
 : i | -2.8% | 0.53
CCCCNC(=O)OC1CCS(=O)(=O)C1 (centres undefined)
 : i | -0.6% | -0.91
Cn1c(=O)c2cc(S(=O)(=O)NC(C(=O)N3CCCCCC3)c3ccccc3)ccc2n(C)c1=O (centres undefined)
 : i | 0.2% | -0.88
Cn1cc(SCC(=O)N2CCN(c3ccccc3)CC2)c2ccccc21
 : i | 2.0% | -0.84
O=S(=O)(c1ccc(Cl)cc1)N1CCC(N2CCOCC2)CC1
 : i | -1.3% | nt
CCn1c(SCCOc2ccc(OC)cc2)nnc1C(CO)NC(=O)c1ccc(OC)cc1 (centres undefined)
 : i | -3.2% | -1.5
COc1cccc(CC(C(=O)Nc2cc(C)ccc2C)c2nn[nH]n2)c1OC (centres undefined)
 : i | -2.7% | -0.39
COC(=O)CCN(C1CCCCC1)S(=O)(=O)c1ccc(S(=O)(=O)N2CCCCC2)cc1
 : i | 4.5% | -1.5
O=C1c2ccccc2C(=O)N1CCCCn1c(=O)oc2ccccc21
 : i | 1.3% | 0.73
Cc1ccc(S(=O)(=O)Cc2ccc(C(=O)N3CCCC3)o2)cc1
 : i | 5.6% | 0.53
CCOC(=O)c1ccc(CNC(=O)c2n[nH]c(=O)c3ccccc23)o1
 : i | 1.2% | -0.69
O=C(CO/N=C/c1ccccc1O)NNC(=O)c1ccccc1Cl
 : i | 4.5% | nt
COc1cccc(C(=O)NC2=NCCS2)c1
 : i | 3.2% | 0.32
CC(C)OC(=O)Nc1ccc(Oc2c(F)c(F)c(F)c(F)c2F)cc1
 : i | -0.6% | 1.7
Cc1noc(C)c1CSc1nnc2cc(C)c3ccccc3n12
 : i | -6.7% | -0.2
CCCc1nc(N2CCCC2)c(C#N)c2c1CCCC2
 : i | 1.2% | -1
CCOC(=O)C1CCCN(C(=O)c2c(-c3ccccc3Cl)noc2C)C1 (centres undefined)
 : i | 3.5% | -0.44
CC1CCN(S(=O)(=O)c2ccc3c(c2)c(=O)c(C(=O)NC2CCCC2)cn3C)CC1
 : i | -2.3% | 1.2
Cn1c(C(=O)NCC2CCCO2)cc2c(=O)n(C)c3ccccc3c21 (centres undefined)
 : i | 1.1% | 0.7
O=c1oc2ccccc2c(O)c1CN1CCCCC1
 : i | -6.5% | 0.25
CC(C)(C)C1CCC2(CC1)C(C#N)=C(SCC(=O)Nc1ccccc1)NC(=O)C2C#N (centres undefined)
 : i | 0.2% | 0.48
Cc1ccc2c(c1)cc(CN(Cc1ccc3c(c1)OCO3)C(=O)c1cnccn1)c1nnnn12
 : i | 2.5% | -1.8
CCn1c(SCC(=O)O)nnc1C1CCCCC1
 : i | 2.2% | -0.21
O=C(Cn1nc(Cc2cccnc2)c2ccccc2c1=O)NCC1CCCO1 (centres undefined)
 : i | -0.6% | -1.4
Cc1nc2ccccc2n1CCCOc1ccccc1
 : i | -0.2% | nt
CCCN(CC1CC1)S(=O)(=O)c1ccc(-n2cnnn2)c(OC)c1
 : i | 3.5% | nt
N#Cc1c(/N=C/N2CCCC2)oc(-c2ccccc2)c1-c1ccccc1
 : i | -3.9% | -1.1
Cn1c(=O)[nH]c(=O)c2c1nc(Br)n2CCCc1ccccc1
 : i | -2.4% | nt
COC(=O)CCC(=O)Nc1cccc(Br)c1
 : i | 0.7% | -0.005
COc1ccc(CCN2CC(O)=C(c3nc4ccccc4c(=O)[nH]3)C2=N)cc1OC
 : i | -2.0% | 0.0019
CCS(=O)(=O)N1CCCC(C(=O)NCCCN2CCCC2=O)C1 (centres undefined)
 : i | 1.6% | -0.8
O=C1CC(N2CCN(Cc3ccc4c(c3)OCO4)CC2)C(=O)N1Cc1ccc(N2CCCC2=O)cc1 (centres undefined)
 : i | 2.5% | 0.52
N#Cc1sc2nc3c(c(-c4cccnc4)c2c1N)CCC3
 : i | -5.5% | -0.4
Cc1onc(-c2c(F)cccc2Cl)c1C(=O)NC1CCSC1=O (centres undefined)
 : i | 0.3% | nt
COc1cc(C(=O)NC2CCN(Cc3nnnn3Cc3cccs3)CC2)cc(OC)c1OC
 : i | -1.8% | 0.15
CCOC(=O)C(Oc1ccc(=O)[nH]n1)C(C)=O (centres undefined)
 : i | 2.9% | -0.12
C/C=C/Cn1c(SCc2ccccc2)nc2c1c(=O)[nH]c(=O)n2C
 : i | -3.0% | 0.44
N#Cc1c(N2CCN(C(=O)c3ccco3)CC2)nc(-c2ccccc2)c2c1CCCC2
 : i | -4.3% | -1.2
Cc1cc(N2CCN(c3ccccc3)CC2)nc(-n2nc(C)cc2C)n1
 : i | -4.2% | 0.27
COc1ccc(S(=O)(=O)NC(CC(=O)N2CCc3ccccc32)c2ccco2)cc1 (centres undefined)
 : i | -2.7% | -0.14
CCN(CC)C(=O)c1ccc(C(=O)c2c(C)cc(C)cc2C)cc1
 : i | 4.1% | nt
Cc1cccn2cc(CNC(=O)CC3CCCC3)nc12
 : i | 2.7% | 0.67
COc1ccc(NC(=O)Nc2cccs2)cc1OC
 : i | -8.9% | -0.73
COCCn1c(SCC#N)nnc1-c1ccccc1O
 : i | -0.9% | 1.6
COc1ccc(C)cc1NC(=O)C1CCN(S(=O)(=O)c2cccc3cccnc23)CC1
 : i | 4.5% | 0.1
CCOc1ccccc1-c1nnc(SCC(=O)Nc2ccccc2)o1
 : i | 7.4% | 2
CCC(c1nnnn1CCOC)N1CCN(c2cccc(C(F)(F)F)c2)CC1 (centres undefined)
 : i | 0.9% | -0.36
Cc1cc2c(cc(C(=O)NCCCN3CCOCC3)n2Cc2ccc(Cl)cc2)o1
 : i | -2.5% | 1.5
O=C(CSc1nnc(COc2ccccc2)o1)Nc1nccs1
 : i | -1.8% | 0.73
O=CN(/C=C1\Sc2ccccc2C1=O)Cc1ccccc1
 : i | 1.6% | nt
[O-][n+]1onc2c1C(N1CCOCC1)CCC2N1CCOCC1 (centres undefined)
 : i | -1.7% | 0.31
CN(Cc1nc(-c2ccccn2)no1)S(=O)(=O)c1ccc(Br)cc1
 : i | -9.9% | -0.9
COC(=O)c1ccc(CSc2nc3c(cnn3-c3ccccc3)c(=O)[nH]2)o1
 : i | -5.6% | 1
CCOC(=O)C1CCCCN1Cc1ccc(F)c(Br)c1 (centres undefined)
 : i | -5.5% | 2.5
COc1ccc(N=c2oc3c(OC)cccc3cc2C(=O)NCc2ccco2)cc1OC
 : i | -2.6% | 1
c1ccc(-n2nnnc2SCc2cn3ccccc3n2)cc1
 : i | 5.7% | 0.18

An excerpt of these results, with each value named:
> CCS(=O)(=O)N1CCCC(C(=O)NCCCN2CCCC2=O)C1 (centres undefined)
  MT1-MMP promoter: i | Hsc70 ATP site: 1.6% | WNV protease inh: -0.8
> O=C1CC(N2CCN(Cc3ccc4c(c3)OCO4)CC2)C(=O)N1Cc1ccc(N2CCCC2=O)cc1 (centres undefined)
  MT1-MMP promoter: i | Hsc70 ATP site: 2.5% | WNV protease inh: 0.52
> N#Cc1sc2nc3c(c(-c4cccnc4)c2c1N)CCC3
  MT1-MMP promoter: i | Hsc70 ATP site: -5.5% | WNV protease inh: -0.4
> Cc1onc(-c2c(F)cccc2Cl)c1C(=O)NC1CCSC1=O (centres undefined)
  MT1-MMP promoter: i | Hsc70 ATP site: 0.3% | WNV protease inh: nt

Later entries.
Second line of a record – MT1-MMP promoter | Hsc70 ATP site | WNV protease inh
COc1ccc(C(=O)NCC2OCCc3ccccc32)c(O)c1 (centres undefined)
 : i | -2.6% | -0.7
O=C(O)CCC(=O)NC1CCCCCCC1
 : i | 1.9% | 0.95
COc1cc(C)c(S(=O)(=O)N2CCOCC2)cc1C
 : i | -0.6% | nt
O=C(CSc1nnc(-c2cc(-c3cccs3)nc3ccccc23)o1)NC1CCCCC1
 : i | 2.6% | nt
C=CCn1c(=O)/c(=C/c2ccc(Cl)cc2)s/c1=C(/C#N)c1nnc2n1CCCCC2
 : i | -5.3% | -0.33
Cc1cc(NS(=O)(=O)c2ccc(NC(=O)C(C)N3C(=O)c4ccccc4C3=O)cc2)nc(C)n1 (centres undefined)
 : i | -1.4% | -0.08
CC1CC(C)CN(CC(=O)Nc2ccc(S(N)(=O)=O)cc2)C1 (centres undefined)
 : i | 3.6% | -0.99
COc1ccc(-c2nc(-c3ccc(NC(=O)c4ccc(Br)o4)cc3)no2)cc1OC
 : i | -9.9% | 0.4
O=C(O)CCC(=O)Nc1ccc2c(c1)oc1ccccc12
 : i | -3.4% | 1.2
COc1ccc(C2=NO[C@@H]3C(=O)N(Cc4ccccc4)C(=O)[C@H]23)cc1OC
 : i | -4.6% | nt
CC1(Cc2cn(CCC#N)c3ccccc23)OCCO1
 : i | 5.5% | 0.08
COCCCNC(=O)CCn1c(=O)c2ccccc2n(CC(=O)Nc2ccc(C)cc2C)c1=O
 : i | -1.2% | 0.06
CCCC1=C(C(=O)OCC)C(c2ccc(O)cc2)n2ncnc2N1 (centres undefined)
 : i | -1.9% | -2.3
CC(C)(O)C#Cc1ccccc1C(=O)NC(CC(N)=O)C(=O)O (centres undefined)
 : i | -6.3% | 1.1
CN(C)S(=O)(=O)c1cccc(C(=O)C2=C3SC=C(c4ccccc4)N3CC2)c1
 : i | -3.8% | -0.12

Source: PubChem
